# PABP FP inh = PABP poly(A) RNA binding inhibitors, primary screen, biochemical, fluorescence polarization, uHTS. inhibition, % at 35 µM. AID 2014, 2009. hit rate 1% among 290,000. Polyadenylate-binding protein 1 (Homo sapiens), P11940;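 active means 50% or more with normal probe brightness, or confirmed in later tests; inconclusive means above 50% with abnormal brightness, or retests that disagree; inactive means below 50% or failed in later tests; about a fifth of its hits are not listed in these tables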;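 further: calls also rest on retests at 20 µM and on dose response follow-up; controls were probe without protein and protein plus probe with vehicle; some compounds called inactive have numbers as strong as hits; many hits fall short of the cut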
# Target sequence (P11940 whole entry, looked up): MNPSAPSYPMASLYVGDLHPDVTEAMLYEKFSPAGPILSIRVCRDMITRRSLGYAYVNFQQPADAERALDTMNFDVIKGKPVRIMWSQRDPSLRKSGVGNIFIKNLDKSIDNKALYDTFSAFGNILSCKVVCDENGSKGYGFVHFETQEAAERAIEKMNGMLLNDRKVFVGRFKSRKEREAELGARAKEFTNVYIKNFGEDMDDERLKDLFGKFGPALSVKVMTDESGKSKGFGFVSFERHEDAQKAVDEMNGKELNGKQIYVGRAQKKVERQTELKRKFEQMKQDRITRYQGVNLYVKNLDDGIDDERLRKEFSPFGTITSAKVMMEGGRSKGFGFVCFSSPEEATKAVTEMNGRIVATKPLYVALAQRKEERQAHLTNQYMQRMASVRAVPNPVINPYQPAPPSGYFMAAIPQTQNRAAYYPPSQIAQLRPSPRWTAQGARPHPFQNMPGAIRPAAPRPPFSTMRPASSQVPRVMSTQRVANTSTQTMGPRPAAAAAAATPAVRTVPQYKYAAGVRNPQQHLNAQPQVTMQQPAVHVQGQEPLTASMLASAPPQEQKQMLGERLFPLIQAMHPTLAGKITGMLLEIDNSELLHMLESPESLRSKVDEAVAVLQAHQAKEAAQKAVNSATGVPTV
# CSC inhib = cancer stem cell viability inhibitors, primary screen, luminescence. cancer stem cell-like cells viability. inhibition, % at 7.5 µM. hit rate 1.1% among 300,000;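 active means mean at 75% or more and at least half the replicates too; inconclusive means mean and replicates disagree; tested in HMLE shEcad cells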;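 further: 0% = median of negative and 100% = median of positive control wells; the first replicate is given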
# Rce1 inh = yeast Rce1p protease inhibitors, primary screen, biochemical, fluorescence, cell-free homogeneous | CAAX prenyl protease 2 (Saccharomyces cerevisiae (strain ATCC 204508 / S288c)), Q03530 | yeast membranes, quenched prenylated peptide cleavage fluorescence | calls only | hit rate 0.27% among 290,000;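 active means fall in fluorescence gain of 50% or more versus controls, with final raw signal at or below 3038400; inconclusive means same 50% fall but final raw signal above 3038400; inactive means fall in fluorescence gain under 50%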;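 further: plate controls were neutral control wells for no effect and wells lacking membranes for full effect; tested at 10 µM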
# Target sequence (Q03530 whole entry, looked up): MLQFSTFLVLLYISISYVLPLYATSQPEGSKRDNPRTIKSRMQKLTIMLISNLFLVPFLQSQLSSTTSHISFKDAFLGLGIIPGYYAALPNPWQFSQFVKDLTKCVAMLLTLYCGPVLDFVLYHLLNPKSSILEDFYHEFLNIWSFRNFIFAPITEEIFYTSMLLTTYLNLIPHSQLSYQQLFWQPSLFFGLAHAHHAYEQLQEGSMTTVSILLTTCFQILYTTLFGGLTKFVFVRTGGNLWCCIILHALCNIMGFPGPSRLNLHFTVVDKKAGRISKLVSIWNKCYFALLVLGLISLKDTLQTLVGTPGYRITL
# UUG fidelity = modulators of yeast start codon fidelity, primary screen, whole organism, S. cerevisiae, single point, plate reader | AID 602363, 2012 | hit rate 0.13% among 350,000 | S. cerevisiae UUG-firefly luciferase reporter, luminescence/redox ratio | activity score, % at 18.7 µM;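 active means replicate mean at a twofold rise or more, about +100% in these data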;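 further: firefly luciferase made from a UUG start codon reports start codon fidelity; reporter light over untreated wells divided by growth signal over untreated wells; some hits fall short of that in this replicate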
# MT1-MMP act inh = blockers of MT1-MMP proenzyme processing, primary screen, HT1080 RFP-PRO-GFP cells, GFP/RFP fluorescence; Matrix metalloproteinase-14 (Homo sapiens), P50281; GFP/RFP ratio fluorescence, overnight; percent of plate control window, DMSO zero; GFP/RFP ratio change, % at 20 µM; hit rate 0.061% among 360,000;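 active means GFP/RFP ratio change of at least 30% with cell ATP level not reduced by more than half and red fluorescence within 50% of control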; further: strong numbers were not always called active
#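 Assay system: HT1080 RFP-PRO-GFP cells | Dosing: 20 µM single dose, 1% DMSO | Incubation: Cells overnight before dosing, compound overnight, 37 °C, 5% CO2 | Evaluation: GFP/RFP fluorescence ratio | Control set: DMSO-only wells and HT1080 RFP-L50D-GFP cell wells as references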
# HIV Env fusion = inhibitors of HIV-1 Env-driven cell-cell fusion, primary screen, HeLa-JRFL effector, CEM21 target cells, luciferase. inhibition, % at 12.3 µM. hit rate 1.1% among 360,000;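 active means mean replicate inhibition score of at least 50 and every replicate individually at or above 50; inconclusive means only one of the two criteria met; inactive means mean below 50 and not all replicates reaching 50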;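 further: 0% = plate neutral controls and 100% = maraviroc near 300 nM; one replicate is shown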
# eIF4H inh = human eIF4H binding inhibitors, primary screen, translation initiation inhibitor project, biochemical, uHTS, fluorescence polarization. Eukaryotic translation initiation factor 4H (Homo sapiens), Q15056. eIF4H fluorescence polarization binding assay. inhibition, % at 35 µM. hit rate 0.94% among 290,000. AID 2012, 2009;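 active means 50% or more with normal probe brightness, or confirmed in later tests; inconclusive means above 50% with abnormal brightness, or retests that disagree; inactive means below 50% or failed in later tests; about a fifth of its hits are not listed in these tables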;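 further: calls also rest on retests at 20 µM and on dose response follow-up; 0% = protein and probe with vehicle and 100% = probe without protein; strong numbers were not always called active; many hits fall short of the cut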
# eIF4H inh retest = further read-out of eIF4H inh, marked with its call; inhibition, %; compound at 20 µM; confirmation average;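 mean of two retest wells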
# PABP FP inh retest = recorded beside PABP FP inh, whose call it bears; inhibition, %; compound at 20 µM; confirmation repeats;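 mean of two retest wells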
# MT1-MMP act inh RFP = further read-out of MT1-MMP act inh, marked with its call; RFP signal change, %; measured here: RFP expression control read;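 0 = vehicle wells; hits needed this value within 50% of zero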
# Starred values were filed as active, the others as inactive; i = inactive; u = inconclusive; x = not tested or not shown; & = joins results of further samples; [ ] = another dose, or the depositor's remark. The list is partial. The share of hits here may be higher or lower than overall.
SMILES,PABP FP inh,CSC inhib,Rce1 inh,UUG fidelity,MT1-MMP act inh,MT1-MMP act inh RFP,HIV Env fusion,eIF4H inh,others
CCOc1ccccc1-n1c(SCC(N)=O)nnc1-c1ccco1,4,-10,i,x,1,0,x,-10,
CC1CC(C)CN(C(=O)CCNC(=O)Cn2cnc3ccccc3c2=O)C1 (stereo not drawn),6,5,i,-3,-4,-1,10,-1,
Cc1c(OC(C)C(=O)NCCCN2CCOCC2)ccc2c3c(c(=O)oc12)CCCC3 (stereo not drawn),x,-17,i,-1,4,3,4,x,
CCCCNS(=O)(=O)c1ccc2nc(-c3cccnc3)cc(C(=O)NC(C)CC)c2c1 (stereo not drawn),9,2,i,-5,-3,3,-4,-5,
Cc1ccc(CCNC(=O)CS(=O)Cc2nc(-c3ccccc3Cl)oc2C)cc1 (stereo not drawn),-5,-14,i,2,0,2,10,1,
COc1ccccc1CCc1nnc(CCC(=O)NC(C)Cc2cccnc2)o1 (stereo not drawn),-2,-1,i,x,2,6,8,-2,
CCOC(=O)c1cc(OC)c2cccc(CN3CCCC(C)(C(=O)NCCOC)C3)c2c1 (stereo not drawn),x,x,x,-7,0,1,-7,x,
COc1ccc(CCNC(=O)c2c(O)c3cc(OC)c(OC)cc3[nH]c2=O)cc1OC,x,x,x,3,2,4,-11,x,
NS(=O)(=O)c1ccc(Nc2nc(-c3ccccc3)cs2)cc1,0,-16,i,-2,-1,-7,-22,-3,
Cc1cc(Sc2nc(NC(C)(C)C)nc(N3CCOCC3)n2)nc(Cl)n1,7,-6,i,x,-3,-1,6,4,
CNC(=O)c1ccccc1NC(=O)c1c(O)c2c([nH]c1=O)CCCC2,-4,x,x,6,-3,-1,x,-6,
COc1ccc(/C=C\C(=O)O[C@@H]2C(O)C(O[C@@H]3OC(C)[C@H](O[C@@H]4OCC(O[C@H]5O[C@H](CO)[C@@H](O)C(O)C5O)C(O)C4O)C(O)C3O)[C@H](OC(=O)[C@]34CCC(C)(C)C[C@@H]3C3=CCC5[C@@]6(C)CC(O)C(O[C@@H]7OC(CO)C(O)[C@H](O)[C@H]7O)[C@@](C)(C(=O)O)C6CC[C@@]5(C)[C@]3(CO)CC4)O[C@H]2C)cc1 (stereo partly drawn),x,65,x,-3,-21,-8,x,x,
Cc1nc2c([N+](=O)[O-])c(C)c(C)cc2[nH]1,-18,-6,i,x,2,2,-44,6,
COc1ccc(NC(=O)C2=C(C)NC(=S)NC2c2ccc(O)c(OC)c2)cc1 (stereo not drawn),0,-5,i,x,1,2,4,-1,
C/C(Cl)=C\Cn1c(N2CCCC2)nc2c1c(=O)[nH]c(=O)n2C,-8,-14,i,2,2,1,x,-4,
C[C@H](CO)N1C[C@H](C)[C@@H](CN(C)S(=O)(=O)c2ccccc2)Oc2ccc(NC(=O)Nc3ccccc3)cc2C1=O,x,x,x,9&12,1,-7,-3[16.7 µM],x,
CCN(Cc1ccncc1)C(=O)c1cccs1,8,7,i,-11,3,3,-39,-2,
O=S(=O)(c1ccc(SCc2ccccc2F)nc1)N1CCCC1,x,4,x,-19,0,-3,4,x,
O=c1oc2c(CN3CCCCC3)c(O)ccc2c2c1CCCC2,-6,8,u,-22,-8,-4,-51,3,
Cc1cc(C)c2c(c1)C1(OCCO1)C(=O)N2,2,-1,i,-5,-3,1,-8,-7,
Cc1ccc(C(=O)NNC(=S)Nc2cccc(Cl)c2Cl)cc1[N+](=O)[O-],5,25,i,-32,4,0,x,5,
Cn1nc(C(=O)NCCOc2ccccc2)c2ccccc2c1=O,-8,-3,i,x,1,-1,5,-1,
Cc1ccc2nc(N(CCCN(C)C)C(=O)COc3ccc(Cl)cc3)sc2c1,-6,-16,i,x,5,1,-22,2,
CC1(C2CC2)NC(=O)N(CC(=O)N2CCN(c3cccc(C(F)(F)F)c3)CC2)C1=O (stereo not drawn),x,2,x,-2,2,-17,x,x,
CC1Cc2cc(/C(O)=C3/C(=O)C(=O)N(Cc4cccnc4)C3c3cccc(O)c3)ccc2O1 (stereo not drawn),x,-7,i,-23,3,-2,0,x,

# Next part (three carried over from the part before).
SMILES,PABP FP inh,CSC inhib,Rce1 inh,UUG fidelity,MT1-MMP act inh,MT1-MMP act inh RFP,HIV Env fusion,eIF4H inh,others
Cc1ccc2nc(N(CCCN(C)C)C(=O)COc3ccc(Cl)cc3)sc2c1,-6,-16,i,x,5,1,-22,2,
CC1(C2CC2)NC(=O)N(CC(=O)N2CCN(c3cccc(C(F)(F)F)c3)CC2)C1=O (stereo not drawn),x,2,x,-2,2,-17,x,x,
CC1Cc2cc(/C(O)=C3/C(=O)C(=O)N(Cc4cccnc4)C3c3cccc(O)c3)ccc2O1 (stereo not drawn),x,-7,i,-23,3,-2,0,x,
CCN1CCN(c2c(C(=O)c3ccc(OC)cc3)cnc3ccccc23)CC1,80,-20,i,-11,3,6,9,-6,eIF4H inh retest=-4;PABP FP inh retest=-1
O=C(CN(C(=O)CNC(=O)c1cccs1)c1ccc2c(c1)OCCO2)NC1CCCC1,7,-9,i,-3,-3,3,-13,6,
Cc1ccc(Nc2c([N+](=O)[O-])c(=O)oc3ccccc23)cc1,3,13,i,x,-3,-1,-39,-1,
OC(c1ccccc1)c1cccnc1 (stereo not drawn),3,-4,i,2,4,1,-28,-2,
Cc1ccc(C(=O)CCC(=O)CCC(=O)O)cc1,x,-4,i,-22,1,6,-9,x,
COc1ccc(-c2[nH]nc3oc(=O)c(CCO)c(C)c23)cc1,0,-5,i,x,-2,3,15,-1,
S=c1[nH]ncn1/N=C/c1cccc(Oc2ccccc2)c1,-4,17,i,-33,-4,-4,-126,-3,
CC(C)NC(=O)c1cc2c(s1)CCCC2,9,3,i,x,0,2,-35,-3,
Cc1ccc(S(=O)(=O)N2C[C@H]3[C@H]4C(=O)N(c5ccccc5)C(=O)[C@H]4C[C@H](OC(=O)NC4CC4)[C@@]3(O)C2)cc1,x,x,x,6,-1,3,-3,x,
COc1cccc(CNC(=O)Cn2c(=O)c3cccn3c3ccccc32)c1,-9,-18,i,-6,2,0,-6,-12,
CS(=O)(=O)Nc1ccccc1Oc1ccccc1,19,-14,i,6,6,0,x,8,
Cc1c(C(=O)Nc2ccc(-n3cnnn3)cc2)oc2ccccc12,-3,-6,x,-7,6,-2,-34,-8,
CCOc1cc(C2C3=C(CCCC3=O)N(C)C3=C2C(=O)CCC3)cc(Cl)c1O,5,5,i,-12,1,2,x,48,
O=C(NCCC1=CCCCC1)C(=O)NCC1OCCCN1S(=O)(=O)c1ccccc1 (stereo not drawn),-10,-62,i,x,-3,-4,4,8,
O=S(=O)(Nc1ccc(-c2nc3cccnc3s2)cc1)c1ccccc1F,-9,6,i,-9,-6,-2,5,4,
CC(C)(C)N(NC(=O)c1ccccc1)C(=O)c1ccc(C(=O)N(NC(=O)c2ccccc2)C(C)(C)C)cc1,-5,-18,i,-18,3,1,-43,-10,
COc1ccccc1CN1CC(C(=O)NCCSc2nnnn2C)CCC1=O (stereo not drawn),8,-3,i,-9,-3,0,12,-4,
CCCCC1=CC2=C(c3ccco3)C(=O)C(C)(OC(=O)c3ccc(OC)cc3)C(=O)C2=CN1CCOC (stereo not drawn),u,1,i,-13,-29,7,18,u,
COc1ccc(-c2cc(C(F)(F)F)nc(-n3cc(Br)cn3)n2)cc1,5,-5,i,-16,-7,-5,-42,-3,
CC1CCN(CCCOc2ccc(OCc3ccccc3)cc2)CC1,-11,69,i,-15,4,3,-47,-8,
Cc1ccc(C(=O)N2CCc3ccccc32)o1,6,11,i,x,-7,-4,-42,4,
Cc1cccc(NC(=O)c2cccc(OC(=S)N3CCOCC3)c2)c1C,-2,7,x,-25,-2,-6,6,-9,
COC(=O)[C@@]12CCCCN1[C@H](c1ccc(-c3ccc(C(C)=O)cc3)cc1)[C@@H]1C(=O)N(C)C(=O)[C@@H]12,x,21,i,-2,-2,-4,6,x,
COc1ccc(OC)c(Nc2cc3ccccc3c(=O)[nH]2)c1,x,7,i,-80,-34,-13,-10,x,
COc1ccc(N2CCN(CCNC(=O)Nc3ccc([N+](=O)[O-])cc3OC)CC2)cc1,-4,3,i,-11,-3,-7,11,-4,
# Carrying on:
SMILES,PABP FP inh,CSC inhib,Rce1 inh,UUG fidelity,MT1-MMP act inh,MT1-MMP act inh RFP,HIV Env fusion,eIF4H inh,others
COc1ccc(CNc2nnnn2C)cc1,5,2,i,-9,-3,5,7,-6,
COc1cc(CNC2CCCCCC2)cc(OC)c1,-2,0,i,1,1,2,x,-12,
O=C(COC(=O)c1cccc(N2C(=O)C3CC=CCC3C2=O)c1)c1ccccc1 (stereo not drawn),9,-6,i,-17,-2,-6,-7,-4,
CC(Oc1ccc(F)cc1)C(=O)/C=C\N(C)C (stereo not drawn),-5,-9,i,-7,-3,4,-25,-7,
CC(C)=CC(=O)NCc1c(Cl)cccc1-n1cccc1,0,-17,i,-13,-5,2,5,0,
COc1ccc2cc3c(N)nn(C(=O)C4CCC(C(C)(C)C)CC4)c3nc2c1 (stereo not drawn),1,59,i,-22,-17,-16,14,6,
Cc1c(C#N)c(N)nc2c3c(sc12)NC(=O)CC3c1ccc(Cl)cc1 (stereo not drawn),-1,-15,i,x,-6,-6,-24,-8,
O=C(C[C@@H]1C/C=C\C[C@@H](Cc2ccc(F)cc2)C(=O)OC[C@@H](Cc2ccccc2)NC1=O)N[C@H](CO)Cc1ccccc1,x,7,x,2,2,3,10,x,
Cc1ccnc(NS(=O)(=O)c2ccc(NC(=O)c3ccc(S(=O)(=O)N4CCCC4)cc3)cc2)n1,0,-4,i,x,1,0,14,-4,
COc1cc(F)ccc1-c1csc(C(C)(NC(C)=O)c2ccccc2)n1 (stereo not drawn),x,x,x,11,1,0,-11,x,
CC1(C(=O)O)CCN1C(=O)c1cccnc1Oc1ccccc1 (stereo not drawn),x,x,x,-22,1,3,-5,x,
O=C(NCC1CCCO1)NC1CCCCC1 (stereo not drawn),-1,-15,i,-1,2,0,-8,-2,
CCOC(=O)c1cnc2ccc(C(=O)OC)cc2c1Nc1ccc2c(c1)OCCO2,-2,-9,i,1,-1,-6,x,3,
CC(=NNc1ccccc1)C(C)=NNc1ccccc1,x,x,x,15,3,0,-41,x,
COc1ccc(-n2c(Cn3c(=O)sc4ccccc43)nnc2SCC(N)=O)cc1,8,-4,i,-5,-2,0,21,1,
CCCCCCNC(=O)c1cccc(-c2ccc(C)c3ccccc23)n1,-3,27,i,-13,-1,-6,33,21,
CCCCNC(=O)C1CC(=O)N(CCc2ccc(C)cc2)C1 (stereo not drawn),-4,x,i,-16,6,3,-12,-10,
COc1ccc(CCn2nnnc2C(c2ccc(C)cc2)N2CCN(C)CC2)cc1OC (stereo not drawn),-2,-9,i,-14,-12,-3,x,-9,

# Assay outcomes from PubChem.
